Assay outcomes as filed in PubChem BioAssay.
RecA splice inh = Mtb RecA intein splicing inhibition; P9WHJ3; cell-free RecA intein splicing, fluorescence; inhibition, %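 (about 9 µM by stock and volumes)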; hit rate 0.75% among 290,000; AID 2221; in the data active means inhibition above about 30%; inconclusive means no clear call, values can overlap the other calls;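 further: 0% = vehicle wells and 100% = reference inhibitor control wells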
Target sequence (P9WHJ3 whole entry, looked up, canonical isoform): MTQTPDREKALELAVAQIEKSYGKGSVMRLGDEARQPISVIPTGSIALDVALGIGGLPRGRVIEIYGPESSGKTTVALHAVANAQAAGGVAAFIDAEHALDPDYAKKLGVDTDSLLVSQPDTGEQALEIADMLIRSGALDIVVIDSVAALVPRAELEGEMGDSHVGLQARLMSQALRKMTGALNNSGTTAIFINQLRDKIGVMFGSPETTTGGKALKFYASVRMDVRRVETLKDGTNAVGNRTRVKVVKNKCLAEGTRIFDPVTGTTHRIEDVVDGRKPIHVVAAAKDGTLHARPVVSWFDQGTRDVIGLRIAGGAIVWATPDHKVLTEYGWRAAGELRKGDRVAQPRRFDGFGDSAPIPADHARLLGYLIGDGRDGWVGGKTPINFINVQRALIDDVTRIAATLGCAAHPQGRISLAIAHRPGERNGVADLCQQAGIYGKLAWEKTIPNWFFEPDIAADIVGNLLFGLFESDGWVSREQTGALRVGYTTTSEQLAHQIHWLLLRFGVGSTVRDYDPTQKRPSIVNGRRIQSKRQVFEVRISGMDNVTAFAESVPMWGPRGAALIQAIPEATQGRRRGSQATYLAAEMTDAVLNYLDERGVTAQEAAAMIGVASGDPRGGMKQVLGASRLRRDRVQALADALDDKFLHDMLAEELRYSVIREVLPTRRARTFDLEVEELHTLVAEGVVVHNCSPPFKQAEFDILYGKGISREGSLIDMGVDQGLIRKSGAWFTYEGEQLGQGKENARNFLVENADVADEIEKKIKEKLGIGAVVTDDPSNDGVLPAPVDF
Arbovirus anti = blocks arbovirus infection. AID 1251. hit rate 0.37% among 200,000. inhibition, % at 10 µM. arbovirus infection cell-based antiviral screen;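 active means inhibition from about 30%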;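 further: bluetongue infection of BSR cells; cell survival read as ATP light after 72 h; 0% = infected wells without compound and 100% = uninfected wells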
Mtb H37Rv = M. tuberculosis H37Rv growth inhibitors, H37Rv strain (AID 1626); M. tuberculosis H37Rv growth inhibition; higher % means a stronger effect; one-dose inhibition, % at 10 µM; IC50 in µM for titrated hits; hit rate 0.95% among 220,000;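 active means confirmed in a dose series; inconclusive means inhibition above 80% but not taken into the dose series; inactive means below 80% or under 30% at every dose of the series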;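 further: bacteria incubated seven days before Alamar blue readout; 0% = bacteria only wells and 100% = bacteria with antibiotic wells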
YopH inh = inhibitors of Yersinia enterocolitica YopH tyrosine phosphatase | fluorescence Ex485/Em525 | inhibition, %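 (about 10 µM by stock and volumes)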 | AID 898 | hit rate 0.16% among 140,000;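 active means inhibition of 50% or more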;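 further: controls were vehicle for no effect and minimum signal wells for full effect; inactives centre near -20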
Mtb betalactam = beta-lactam sensitization of Mtb H37Rv; inhibition, % at 25 µM; hit rate 0.27% among 330,000; M. tuberculosis H37Rv growth with meropenem, percent inhibition; hits of this screen are not shown here; AID 434955;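 active means about 74% or more and at least 40 points above the plate without the antibiotic, then above 30% in a dose series; inconclusive means first-round hits that could not be retested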;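 further: growth measured after seven days incubation then overnight dye step; 0% = bacteria only wells and 100% = bacteria with antibiotic; twin plates without the antibiotic show which effects depend on it; some results filed as inactive read as strong as hits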
Arbovirus anti repeat = recorded beside Arbovirus anti, whose call it bears; inhibition, %; measured here: 10K subset replicate screen; many hits read low in the repeat;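 first of two repeat runs on a subset; 0% = infected and 100% = uninfected wells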
Starred values were filed as active, the others as inactive; ? = inconclusive; . = no result given. Not all compounds are listed, so the mix of outcomes need not match the whole.

A first look, 7 compounds:
SMILES	RecA splice inh	Arbovirus anti	Mtb H37Rv	YopH inh	Mtb betalactam	others
Cn1c(=O)n(/N=C/c2ccccc2)c2ccccc21	-2.5	-5.6	2.7%	-2.2	82.5
CNc1c(NS(=O)(=O)c2ccc(Cl)s2)c(=O)oc2ccccc12	2.3	.	.	.	0.0
O=C(NCC(=O)N(c1ccc(F)cc1)C(C(=O)NCC1CCCO1)c1ccccc1)c1ccco1 (centres undefined)	-1.1	12.5	-7.7%	-32.2	-4.6
COc1ccc(OCC(=O)N/N=C/c2ccc(N(C)C)cc2)cc1	0.3	1.2	-1.2%	.	-7.3
NC(=O)C1CCN(C(=O)c2cc3n(n2)C(C(F)(F)F)CC(c2ccco2)N3)CC1 (centres undefined)	-4.8	-0.8	2.3%	-7.1	-10.6	Arbovirus anti repeat=-1.5
NS(=O)(=O)c1cc(C(=O)N=Nc2c(O)[nH]c3ccccc23)ccc1Cl	4.6	.	0.6%	.	2.1
CCOC(=O)c1c(NC(=O)c2cc3n(n2)C(C(F)(F)F)CC(c2cccs2)N3)sc(C)c1C (centres undefined)	-0.2	-2.0	3.2%	-28.9	0.0

The list itself (from the top)
SMILES	RecA splice inh	Arbovirus anti	Mtb H37Rv	YopH inh	Mtb betalactam	others
Cn1c(=O)n(/N=C/c2ccccc2)c2ccccc21	-2.5	-5.6	2.7%	-2.2	82.5
CNc1c(NS(=O)(=O)c2ccc(Cl)s2)c(=O)oc2ccccc12	2.3	.	.	.	0.0
O=C(NCC(=O)N(c1ccc(F)cc1)C(C(=O)NCC1CCCO1)c1ccccc1)c1ccco1 (centres undefined)	-1.1	12.5	-7.7%	-32.2	-4.6
COc1ccc(OCC(=O)N/N=C/c2ccc(N(C)C)cc2)cc1	0.3	1.2	-1.2%	.	-7.3
NC(=O)C1CCN(C(=O)c2cc3n(n2)C(C(F)(F)F)CC(c2ccco2)N3)CC1 (centres undefined)	-4.8	-0.8	2.3%	-7.1	-10.6	Arbovirus anti repeat=-1.5
NS(=O)(=O)c1cc(C(=O)N=Nc2c(O)[nH]c3ccccc23)ccc1Cl	4.6	.	0.6%	.	2.1
CCOC(=O)c1c(NC(=O)c2cc3n(n2)C(C(F)(F)F)CC(c2cccs2)N3)sc(C)c1C (centres undefined)	-0.2	-2.0	3.2%	-28.9	0.0
Cc1nn(CC(=O)c2ccc(Cl)cc2Cl)c(C)[n+]1N	-2.5	-7.5	-5.6%	-6.8	12.4
CN1CCN(C(=O)CCc2nc(-c3ccc(Cl)cc3)no2)CC1	-0.6	-2.0	-2.0%	.	-16.4
O=C(/C=C/c1ccccc1)NCc1ccc2c(c1)OCO2	-0.2	.	.	.	-3.5
CCOC(=O)C1=C(Cc2ccc(F)cc2)C(=O)c2ccccc2C1=O	7.8	2.7	1.6%	13.7	22.6
CCOc1ccc(N(CC(=O)NCc2cccs2)S(=O)(=O)c2c(C)noc2C)cc1	-0.3	-1.6	-5.3%	-24.1	-5.5	Arbovirus anti repeat=-1.6
O=C(CN1CCN(Cc2ccccc2Cl)C1=O)NC1CCCCCCC1	2.3	5.3	4.0%	-17.6	-7.9
O=C(NCCCN1CCCC1=O)c1ccc2c(=O)n(-c3ccc(F)cc3)c(=S)[nH]c2c1	6.5	21.7	9.0%	.	-3.0
Cc1ccc2c(CSc3nc4nc(C)cc(C)n4n3)cc(=O)oc2c1	2.5	0.2	-0.2%	-2.4	-4.7
Cc1nc2ccccc2n1CCOc1ccccc1	3.4	.	.	.	-5.2
C=CCOC(=O)C1=C[C@@H](C2CCCCC2)C[C@@H](OCc2ccc(CO)cc2)O1	11.2	-1.4	4.2%	.	89.8
COc1ccc(CNC(=O)C2CCC(CNc3nc(=S)[nH]c4ccccc34)CC2)cc1 (centres undefined)	.	-3.9	2.6%	.	-2.1
Cc1cccc(C)c1Nc1nnc(SCc2cc([N+](=O)[O-])cc3c2OCOC3)s1	-0.3	12.0	-2.2%	-12.5	0.9
Nc1c(C(=O)NCc2ccc3c(c2)OCO3)nnn1-c1ccc(OC(F)(F)F)cc1	0.3	-4.3	9.4%	-27.7	5.3
C/C(=N\NC(=S)NC1CCCCC1)c1ccc(C)o1	-1.6	7.0	17.1%	.	91.7
C/C(Cc1ccccc1)=N\NC(=O)CNC(=O)c1ccccc1Br	.	1.0	-2.5%	-3.9	-1.1
COc1ccccc1N/C=C1/Sc2cc(Cl)ccc2NC1=O	-0.9	-11.3	3.4%	.	0.9
Cc1c(C)c2cc3c(C)coc3cc2oc1=O	-0.2	.	.	.	-9.2
Cc1ccn2cc(-c3ccc(NS(=O)(=O)c4ccccc4)cc3)nc2c1	6.6	2.8	4.4%	-23.1	4.7

Entries shown so far with a CF3 group:
SMILES	RecA splice inh	Arbovirus anti	Mtb H37Rv	YopH inh	Mtb betalactam	others
NC(=O)C1CCN(C(=O)c2cc3n(n2)C(C(F)(F)F)CC(c2ccco2)N3)CC1 (centres undefined)	-4.8	-0.8	2.3%	-7.1	-10.6	Arbovirus anti repeat=-1.5
CCOC(=O)c1c(NC(=O)c2cc3n(n2)C(C(F)(F)F)CC(c2cccs2)N3)sc(C)c1C (centres undefined)	-0.2	-2.0	3.2%	-28.9	0.0
Nc1c(C(=O)NCc2ccc3c(c2)OCO3)nnn1-c1ccc(OC(F)(F)F)cc1	0.3	-4.3	9.4%	-27.7	5.3

Additional records.
SMILES	RecA splice inh	Arbovirus anti	Mtb H37Rv	YopH inh	Mtb betalactam	others
CN1C(=O)[C@H]2[C@@H](C3CC3)N3C(=O)CN(Cc4ccc(-c5ccccc5)cc4)C(=O)[C@@]3(C)[C@H]2C1=O	1.3	.	.	.	-8.5
CC(C)(C)C(=O)Nc1nnc(SCC(=O)NC2CCCC2)s1	-0.1	.	.	.	1.5
O=C1/C(=C/C=C/c2ccccc2)Oc2c1ccc(O)c2CN1CCN(CCO)CC1	-5.7	.	-11.9%	.	0.9
CC(NC(=O)C1CCC(CNC(=O)[C@@H]2Cc3ccccc3CN2)CC1)c1ccccc1 (some centres undefined)	0.8	.	.	.	-8.8
Cc1ccc(OCC(=O)Nc2ccc3c(c2)nc(CCN2CCOCC2)n3C)cc1	3.5	1.6	-21.9%	-50.4	3.9
COc1ccccc1NS(=O)(=O)c1ccc2oc(=O)ccc2c1	-0.5	.	.	.	1.6
O=C(Nc1ccccc1Cl)C1(c2ccccc2)CC1(Cl)Cl (centres undefined)	5.0	8.3	6.0%	-10.0	5.5
N#Cc1nc(Cc2cccc3ccccc23)oc1NCc1ccc2c(c1)OCO2	10.3	-7.1	-9.4%	-47.1	1.1
O=C(O)C1CCC(N2C(=O)c3cccc([N+](=O)[O-])c3C2=O)CC1 (centres undefined)	-6.2	.	.	.	-3.0
CCn1ncc(/C=N\NC(=O)COc2ccccc2)c1C	-0.3	1.1	1.6%	-11.8	2.9
O=c1oc2ccccc2cc1-c1cn(-c2ccccc2)c(=S)[nH]1	-3.7	-23.6	-8.9%	-22.7	-2.8
COc1ccccc1N(CC(=O)Nc1ccc(F)c(F)c1)S(C)(=O)=O	-4.1	-1.5	-4.6%	30.1	6.9
CCCCS(=O)(=O)N1CCC(C(=O)Oc2ccccc2OC)CC1	3.2	.	.	.	55.1
O=C(N/N=C/c1ccccn1)C1CC1	-5.0	3.5	-9.3%	-11.7	8.7
CCOC(=O)CCC(=O)Nc1ccccc1C(N)=O	0.4	-3.2	-6.6%	-39.2	-7.8
O=C(CN1CCC(NC(=O)c2ccccc2F)CC1)Nc1ccc2c(c1)OCO2	0.9	-3.0	-12.1%	.	-4.8
Cc1ccc2oc3c(c(=O)c2c1)C(c1cccc(Cl)c1)N(CCCN1CCOCC1)C3=O (centres undefined)	-2.2	6.0	4.9%	.	2.1	Arbovirus anti repeat=-3.2
O=C(/C=C/c1ccccc1)N1CCCN(C(=O)/C=C/c2ccccc2)CC1	0.1	4.0	-8.6%	-31.6	-1.9
CCCCCN1CC(O)=C(c2nc(-c3ccc(Cl)cc3)cs2)C1=N	-3.6	0.5	-0.3%	-33.2	?
CCC(C(=O)NCCc1ccc(OC)cc1OC)n1nc(C)n2c(cc3occc32)c1=O (centres undefined)	0.7	.	.	.	4.5
CCn1c(SCC(=O)Nc2ccc(F)cc2)nc2ccccc2c1=O	0.7	.	.	.	2.6
O=C(NCC1CCCO1)C1CCCN1C(=O)Nc1ccc(Cl)c(Cl)c1 (centres undefined)	-0.4	-2.9	5.4%	.	-0.7
CCOCCCNC(=O)c1c(-c2ccccc2)noc1C	0.6	-0.8	-12.0%	-35.5	-7.0
CC(C)c1ccc(/C=N/NC(=O)c2cccc(S(=O)(=O)N3CCOCC3)c2)cc1	1.5	5.8	-6.7%	.	-9.2
COC(=O)[C@@H]1CC[C@H](C)[C@@H](c2ccc(C)cc2)N1C(=O)c1ccc(/C=N/O[C@H](C)c2cn([C@@H]3COC[C@H]3O)nn2)cc1	2.3	-24.7	.	-11.5	2.5

3 entries from above, sorted by number of heavy atoms, smallest number first.
SMILES	RecA splice inh	Arbovirus anti	Mtb H37Rv	YopH inh	Mtb betalactam	others
CCCCS(=O)(=O)N1CCC(C(=O)Oc2ccccc2OC)CC1	3.2	.	.	.	55.1
COc1ccccc1N(CC(=O)Nc1ccc(F)c(F)c1)S(C)(=O)=O	-4.1	-1.5	-4.6%	30.1	6.9
Cc1ccc(OCC(=O)Nc2ccc3c(c2)nc(CCN2CCOCC2)n3C)cc1	3.5	1.6	-21.9%	-50.4	3.9

Other entries:
SMILES	RecA splice inh	Arbovirus anti	Mtb H37Rv	YopH inh	Mtb betalactam	others
O=c1[nH]c(COc2ccc(Br)cc2Cl)nc2ccccc12	-1.8	.	.	.	-0.7
CC(=O)c1cc2c(ccc3ccccc32)oc1=O	-203.5	.	.	.	25.1
CCc1cc(/C(Cc2ccccn2)=N\O)c(O)cc1O	-12.4	4.6	-5.0%	-12.0	-1.1
COC(C[C@@H]1O[C@@H]1[C@@H](O)COCc1ccccc1)OC	-1.3	.	-8.3%	.	.
COc1ccccc1C(=O)Nc1nnc(-c2ccccc2)s1	3.2	.	.	.	13.1
CC(C)CN(C(=O)CN(C)S(=O)(=O)c1ccc(Cl)cc1)C1CCS(=O)(=O)C1 (centres undefined)	-0.6	.	.	.	-0.1
CC1CCCCC12NC(=O)N(CC(=O)Nc1cccnc1Cl)C2=O (centres undefined)	-0.9	.	.	.	-1.9
COc1ccccc1N1CCN(C(=O)CCN2C(=O)c3cccc4cccc(c34)C2=O)CC1	-0.1	-7.0	-4.2%	.	-9.8
O=C(COC(=O)c1cc(-c2ccc(Cl)s2)nc2ccccc12)NCc1ccco1	-12.2	5.0	-4.3%	1.4	28.8
Nn1c(SCC(=O)Nc2ccc3c(c2)OCO3)nnc1C1CC1	0.0	-2.6	-0.9%	-131.9	?
CCCNc1nc2c(c(=O)[nH]c(=O)n2C)n1CCc1ccccc1	-1.1	-4.2	8.0%	-45.9	0.1	Arbovirus anti repeat=-2.3
COCCN1C(=O)C(=O)/C(=C(/O)c2ccc(S(=O)(=O)N3CCOCC3)cc2)C1c1cccc(Cl)c1 (centres undefined)	-2.9	.	-1.1%	.	-2.8
COc1ccc(CNN2CCCCC2C(=O)Nc2ccc(OC)c(OCC(C)C)c2)cc1OC (centres undefined)	-13.6	.	1.8%	.	-5.4
COc1ccc(OC)c(S(=O)(=O)NCC(c2ccc(F)cc2)N2CCN(C)CC2)c1 (centres undefined)	-0.3	.	.	.	-0.3
CC1=NN(c2ccc(C)cc2)C(=O)/C1=C\C=C\c1ccccc1	0.5	-32.4	-0.2%	-15.5	94.5
CN(C)S(=O)(=O)c1cc(NC2CC(=O)N(c3ccc(F)cc3)C2=O)ccc1Cl (centres undefined)	2.4	1.8	-8.8%	.	2.3
CCN(CC(=O)Nc1cc(Cl)ccc1C)C(=O)c1ccc(=O)n(Cc2ccccc2)n1	1.4	.	.	.	?
COc1cccc(OC)c1C(=O)NC(=S)N1CCCCC1c1cccnc1 (centres undefined)	-1.9	.	.	.	-2.9
COc1ccc(CNS(=O)(=O)c2c(C(=O)N3CCCCCC3)c(C)n(C)c2C)cc1	-2.3	.	.	.	0.1
Cc1cc2c(cc1S(=O)(=O)NCc1ccccc1)NC(=O)CO2	-0.8	.	.	.	-10.2
CN(C)S(=O)(=O)n1cc(/C=C(\NC(=O)c2ccccc2)C(=O)NCCN2CCOCC2)c2ccccc21	2.4	.	.	.	90.3
COC(=O)c1cc(S(=O)(=O)Nc2ccc(C)c(F)c2)c[nH]1	1.1	.	.	.	8.4
CSCCC(NS(=O)(=O)c1ccc(C)cc1)C(=O)Nc1ccc(C)cn1 (centres undefined)	-7.6	.	.	.	-10.2
CCn1c(=S)sc2c(=O)n(CC(=O)Nc3cccc(Cl)c3)c(C)nc21	3.7	.	.	.	41.2
